AID504770: growth inhibition of E. coli YBA685, primary screen, V. cholerae RctB inhibitors; E. coli YBA685 rctB-dependent plasmid, OD600 growth, 3 h; active compounds read low; z-score (test concentration not listed); 130,000 tested, 0.27% active; AID 504770, 2011;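 active = z-score under -2 on both plates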;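 note: wells of about 30 µL received 100 nL stock; score is relative to mean and SD of the test wells; the first replicate is given; strong numbers were not always called active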
Ba CapD inh: Bacillus anthracis CapD inhibitors, primary screen, biochemical, fluorescence intensity; CapD gamma-glutamyltranspeptidase (Bacillus anthracis Ames Ancestor); purified CapD enzyme, fluorescence intensity read-out; active compounds read low; some hits fall short of the stated cut; z-score (concentration not given with the values); 140,000 tested, 0.23% active; AID 492967, 2010;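 active = z-score under -4 in either of two replicates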;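 note: stock transfer was 100 nL into about 40 µL; score is relative to mean and spread of the plate; one replicate is shown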
Numbers without * were called inactive; i = inactive; · = no result given.

SMILES | AID504770 | Ba CapD inh
N#CCc1c(C#N)c(N)nc(Nc2ccccc2)c1C#N | 0.55 | ·
CC(=O)OC1C(=O)OC2C1OC(n1ccc(=O)[nH]c1=O)C2OC(C)=O (stereo not given) | -0.75 | 0.12
O=C(NCCN1CCN(C(=O)Nc2ccccc2)CC1)Nc1ccccc1 | -0.25 | 0.29
O=C(Nc1nnc(-c2ccc(Cl)cc2)o1)C1CC1 | -0.15 | ·
CC(C)NC(=O)C1CCCN(c2nnc(-n3cccc3)s2)C1 (stereo not given) | -1.2 | -0.36
O=C(NCCc1c[nH]c2ccccc12)c1cc2c(s1)CCC2 | -0.1 | -0.57
N/C(=N\S(=O)(=O)c1cc(Cl)c(Oc2ccc([N+](=O)[O-])cc2)c(Cl)c1)c1ccncc1 | · | -0.68
O=C(COc1ccc(Cl)cc1Cl)NC(=O)NC1CCCC1 | -0.5 | ·
CCOC(=O)c1c(NC(=O)c2cc(-c3ccc4c(c3)OCO4)on2)sc2c1CCCC2 | -0.8 | 0.065
O=C(COc1ccccc1)OCc1nc2ccccc2s1 | 0.2 | i
CS(=O)(=O)N1CCN=C1SCc1cccc2ccccc12 | -0.05 | -0.55
C=CCOc1ccc2ccc(=O)oc2c1 | -0.8 | 45
O=C(OCC(=O)N1CCOCC1)c1cc(F)c(F)cc1Cl | -0.2 | 0.18
CNc1ccccc1C(=O)NC1CC(C)CC(C)(C)C1 (stereo not given) | · | 85
CCOC(=O)c1cc2c(ccn2-c2ccc(F)cc2)n1CC(=O)c1ccc2c(c1)OCCO2 | 2.2 | ·
Cc1cc(C)c(Cn2c3ccccc3c3cnn(CC(=O)NCc4ccco4)c(=O)c32)c(C)c1 | 0.4 | 1.5
Cc1nnc(SCC(=O)c2ccc(Cl)cc2)s1 | -0.8 | 0.4
CCOC(=O)CNc1nc(CC(=O)OC)nc2sc(C(=O)OCC)c(C)c12 | · | 82
CC1CCCCN1S(=O)(=O)c1ccc(F)c(C(=O)Nc2c(F)cc(F)cc2Br)c1 (stereo not given) | -0.45 | 0.12
CN1C(=O)CC(c2ccco2)Sc2ccccc21 (stereo not given) | 0.45 | ·
COc1cc2nc(=S)n3c(c2cc1OC)NC(=O)C3CC1CCCCC1 (stereo not given) | · | -0.85
CC1S/C(=N\N=C/C23CC4CC(CC(C4)C2)C3)NC1=O (stereo not given) | -0.75 | -0.15
CC(Sc1nnc(-c2ccco2)n1C(C)C1CC2CCC1C2)C(N)=O (stereo not given) | 1.6 | ·
Cc1cccc(C)c1N=C(NO)c1nonc1N | 1.9 | -1.2
CCSc1nc2c(c(=O)n1CC)C1(CCCC1)Cc1ccccc1-2 | -0.75 | 1.2
Cc1nn(C)c(C)c1NS(=O)(=O)c1ccccc1 | -0.15 | -0.8
COC(=O)c1c(Cc2cccc(C(F)(F)F)c2)c[nH]c1C | -0.55 | ·
CC(=O)Oc1ccc(-c2nc(-c3ccccc3)no2)cc1 | 0.55 | 0.67
c1ccc(NCC2OCc3ccccc3CO2)cc1 | 0.35 | -0.05
COc1ccc2c(c1)c1c3n2CCN(C)C3=NCC1 | -0.2 | 1.7

A stretch from the list above, for reference:
SMILES | AID504770 | Ba CapD inh
COc1cc2nc(=S)n3c(c2cc1OC)NC(=O)C3CC1CCCCC1 (stereo not given) | · | -0.85
CC1S/C(=N\N=C/C23CC4CC(CC(C4)C2)C3)NC1=O (stereo not given) | -0.75 | -0.15
CC(Sc1nnc(-c2ccco2)n1C(C)C1CC2CCC1C2)C(N)=O (stereo not given) | 1.6 | ·
Cc1cccc(C)c1N=C(NO)c1nonc1N | 1.9 | -1.2
CCSc1nc2c(c(=O)n1CC)C1(CCCC1)Cc1ccccc1-2 | -0.75 | 1.2

Next section.
SMILES | AID504770 | Ba CapD inh
Cc1c(N2C(=O)CSC23C(=O)Nc2ccccc23)c(=O)n(-c2ccccc2)n1C (stereo not given) | · | -0.68
CC(C)c1cc(NC(C)c2ccccc2)n2c(nc3ccccc32)c1C#N (stereo not given) | 0.3 | 2.1
COc1ccc(COn2ccc3ccc(S(C)(=O)=O)cc32)cc1 | · | 7.6
O=C(NC(=S)Nc1cccnc1)c1ccccc1 | · | 0.78
Cc1cc(/C=c2/sc3nc4ccccc4n3c2=O)c(C)n1-c1ccc(Cl)c(Cl)c1 | · | -0.15
O=C(NCCc1ccccc1Cl)OCCCc1ccccc1 | · | -0.52
O=C1CCCN1CCCNc1ccc2nnc(CCC(=O)N3CCCCC3)n2n1 | 0.7 | 0.77
Cc1ccc(N=C2NC(=O)/C(=C3\C(=O)N(C)c4ccccc43)S2)cc1C | -1.1 | -1.2
CC1(C)SC(=S)N(/N=C/c2cccnc2)C1N(O)C(=O)Nc1ccc(Cl)c(Cl)c1 (stereo not given) | · | -0.17
CC(C)(C)c1cc([N+](=O)[O-])c(OC(=O)c2ccc(Cl)cc2Cl)c(C(C)(C)C)c1 | · | -0.26

Four of the compounds above, tab-delimited:
Molecule	AID504770	Ba CapD inh
O=C1CCCN1CCCNc1ccc2nnc(CCC(=O)N3CCCCC3)n2n1	0.7	0.77
Cc1ccc(N=C2NC(=O)/C(=C3\C(=O)N(C)c4ccccc43)S2)cc1C	-1.1	-1.2
CC1(C)SC(=S)N(/N=C/c2cccnc2)C1N(O)C(=O)Nc1ccc(Cl)c(Cl)c1 (stereo not given)	·	-0.17
CC(C)(C)c1cc([N+](=O)[O-])c(OC(=O)c2ccc(Cl)cc2Cl)c(C(C)(C)C)c1	·	-0.26

Additional results:
SMILES | AID504770 | Ba CapD inh
CC(=O)N1C(=O)C2(OCCO2)c2ccccc21 | 0.6 | ·
N#Cc1cc(C#N)c(SCC(=O)Nc2sc3c(c2C#N)CCCC3)nc1N | · | 2.2
CCCN(CCC)S(=O)(=O)c1ccc2c(c1)C(=C(C)C)C(=O)N2 | -0.75 | 0.34
CN(C)C(=O)c1cc(Cl)cn(Cc2ccc(C(F)(F)F)cc2)c1=O | · | 1.9
Cc1cc(C)nc(NC(=O)C(C)n2c(C(F)(F)F)nc3ccccc32)c1 (stereo not given) | · | 0.05
CN(C)c1nc2c(c(=O)[nH]c(=O)n2C)n1Cc1ccc(Cl)cc1 | 0.55 | -0.49
CCOc1ccc(NC(=O)CSC2=C(C#N)C(c3ccc(C(C)C)cc3)CC(=O)N2)cc1 (stereo not given) | · | -1.4
CS(=O)(=O)c1ccc(CCC(=O)NCC2CCCO2)cc1 (stereo not given) | · | 0.34
CN1C(=O)N(C)C2CC1N(C)C(=O)N2C | -0.4 | 0.33
O=C1c2ccccc2NC(c2ccc(OCc3ccccc3Cl)cc2)N1c1ccc(Cl)cc1 (stereo not given) | · | 24
Cc1nn(CC(=O)NC2CCCCCC2)c(=O)c2nn(-c3ccccc3)c(C)c12 | 0.95 | 0.25
Cc1ccc(NC(=O)CCc2nnc3ccc(NC4CCCC4)nn23)cc1 | -0.7 | 11
CCCn1c(C)cc(C(=O)COC(=O)c2ccc(S(C)(=O)=O)cc2)c1C | 0.1 | ·
CC1CCN(C(=O)CCNS(=O)(=O)c2ccc3c(c2)c(=O)n(C)c(=O)n3C)CC1 | -1.4 | 0.83
Cc1nccc(-c2cccc(N/N=C(\C#N)S(=O)(=O)c3ccccn3)c2)n1 | -0.85 | -0.34
Cc1cccc(Nc2nc(-c3ccc(F)cc3)cs2)n1 | 2.9 | -0.83
CCOC(=O)C1(O)CC(C)=NN1C(=O)c1cccc(Cl)c1 (stereo not given) | 1.8 | -0.42
CCOC(=O)c1ccc(-n2c(=S)sc3c(=O)n(CC4CCCO4)c(SCC4OCCO4)nc32)cc1 (stereo not given) | · | 0.21
O=C(Nn1c(-c2cccc(Cl)c2)nc2ccccc2c1=O)c1cc2cc(Br)ccc2oc1=O | · | 0.4
CCCC(=O)Nc1nc2ccc(S(=O)(=O)N(C)C)cc2s1 | 0.85 | -0.33
CC(=O)Nc1cc(C)nn1C | 2.2 | 0.01
CCC(C)(C)c1cc2cc(NC(=O)c3cccs3)ccc2[nH]1 | · | -0.48
N#Cc1c(N)nc(SC2CCCCC2=O)c(C#N)c1-c1ccc(O)cc1 (stereo not given) | 0.25 | 4.5
CCSc1nc2c(c(=O)[nH]1)C(C(C)C)C(C#N)=C(N)O2 (stereo not given) | -0.55 | -0.58
Cc1ccc(CNC(=O)c2oc3ccc4c(c3c2C)C(=O)CC(C)(C)O4)cc1 | 0.25 | 0.92
CCC(CC)NC(=O)c1cccc(OC)c1OC | 0.25 | 0.45
O=C(NCC1CCCO1)c1ccc2c(=O)n(CC3CCCO3)c(SCc3cc(=O)n4ccccc4n3)nc2c1 (stereo not given) | · | 1.1
CN(C)/N=C/c1cn(-c2ccccc2)nc1-c1cccnc1 | -0.3 | ·
COC(=O)c1ccc(OCC(O)CN2CC(C)CC(C)C2)cc1 (stereo not given) | -1.1 | 0.025
CC(OC(=O)c1ccc2c(c1)S(=O)(=O)N=C1CCCCCN12)C(=O)NC1CC1 (stereo not given) | 1.9 | ·
COc1ccc(C2NC(CC(C)C)(C(=O)O)C3C(=O)N(c4ccccc4OC)C(=O)C23)cc1 (stereo not given) | 1.4 | 0.085
COc1cc(C(F)(F)F)nc2ccc(C#CCOC(=O)c3ccccc3)cc12 | -0.4 | -0.2
CCCCc1c(O)cc(-c2ccccc2)n(Cc2ccccc2)c1=O | -0.1 | 24
CC(C)(C)c1ccc(-c2noc(-c3ccc4c(c3)CCO4)n2)cc1 | 1.4 | 0.4
O=C1/C(=C/c2c(NCCO)nc3ccccn3c2=O)SC(=S)N1C1CCS(=O)(=O)C1 (stereo not given) | · | 0
COc1cc(-c2cc(C#N)on2)ccc1OCc1ccccc1 | 1.1 | -0.93
OC1CCCc2ccccc21 (stereo not given) | 0.7 | ·
CC(C)CN(CC(C)C)c1nc(N)c(C#N)c(CC#N)c1C#N | -0.55 | ·
O=C(COc1cccc2c1CCN(Cc1ccccc1)C2=O)N1CCCCC1 | -0.05 | 0.3
O=C1NC(=O)C2CC=CCC12 (stereo not given) | -0.45 | ·
CCOC(=O)c1sc2nc(SCC(=O)NCc3ccccc3Cl)n(CC3CCCO3)c(=O)c2c1C (stereo not given) | · | 0.89
CCOC(=O)c1c(C)oc2cc(Br)c(O)c(CN(C)C)c12 | 0.3 | 0.01
COc1cc(C(F)(F)F)nc2ccc(Br)cc12 | · | -0.13
COC(=O)CCC(=O)Nc1nc(-c2ccccc2)cs1 | 0.05 | 0.51
COc1ccc(C(=O)C(C(c2ccccc2)N2CCOCC2)N2CCOCC2)cc1 (stereo not given) | -0.5 | ·
CCOc1ccc2c(c1)s/c(=N/C(=O)Nc1ccc(OC)cc1)n2C | 1.8 | ·
CC1=C(C(=O)Nc2ccccn2)C(c2cccc(Oc3ccccc3)c2)C2=C(CC(C)(C)CC2=O)N1 (stereo not given) | · | 25
Cn1nc(C(C)(C)C)cc1C(=O)Nc1ccccc1 | -1.1 | -0.19
CCCn1c(-c2ccc(F)cc2)cnc1SCC(=O)N1CCCCC1C (stereo not given) | -0.2 | ·
CCOc1ccc(C(=O)NC2CCCCC2)cc1 | 2.2 | -0.21
Continued:
SMILES | AID504770 | Ba CapD inh
CC(C)(C)c1csc(-c2ccc(Cl)cc2)n1 | · | -0.28
O=C1CSC(=O)N1CCN=Cc1c(O)n(Cc2ccccc2)c(=O)c2ccccc12 | -0.15 | ·
c1ccc(C2=Nn3c(nnc3-c3cnccn3)SC2)cc1 | 0.75 | ·
CNC(=S)Nc1cccc(C(=O)OC)c1 | -1 | -0.45
COc1ccc(-c2nc3ccccc3c(=O)n2OC(=O)/C=C/c2ccc(Cl)cc2)cc1OC | · | -0.85
COC(=O)c1ccc(NC(=O)/C(=C\c2ccc3c(c2)OCO3)NC(=O)c2ccccc2)cc1 | · | -0.17
CCn1cc(C(=O)NCC(OC)OC)c(=O)c2cc(S(=O)(=O)N3CCCC3)ccc21 | -0.1 | 8.8
CCCc1nc(SCC(=O)N2CCCC2)c2ccccc2n1 | -0.2 | ·
O=C(Nc1ccc2c(c1)oc1ccccc12)C1CC1 | 0.15 | ·
O=C1CCC(C(=O)N=c2sccn2Cc2ccc(Cl)cc2Cl)=NN1 | 0.7 | ·
COc1ccc(NC2CC(C)(C)n3cccc32)cc1 (stereo not given) | · | -0.56
CC12CCC(C(=O)N3CCCCC3)(OC1=O)C2(C)C (stereo not given) | · | 0.2
CCOC(=O)NC(=S)Nc1ccc(F)cc1F | 2.6 | 0.79
Fc1ccc(-c2csc3ncnc(NCCc4ccc5c(c4)OCO5)c23)cc1 | · | -0.59
Cc1ccc(CNC(=O)/C=C/C(=O)O)cc1 | -0.55 | -0.89
COC(=O)c1scc(C)c1NS(=O)(=O)c1ccc2c(c1)CCO2 | -0.8 | -1.9
Cc1nn2c(=O)/c(=C/c3ccccc3)sc2nc1=O | -0.5 | 1.2
C/C(CC(c1ccccc1)c1c(O)c2ccccc2oc1=O)=N/O (stereo not given) | 0.1 | 20
CC(=O)NC1C(OCc2ccc3ccccc3c2)OC(COC(C)=O)C(OC(C)=O)C1OC(C)=O (stereo not given) | · | -0.68
Cc1cc(NC(=O)c2sc3nc4c(cc3c2N)C2CCN4CC2)no1 | -0.5 | 9.1
Cc1cc(C)c2nc(N3CCC(C(=O)N4CCOCC4)CC3)sc2c1 | -0.2 | 0.04
COc1ccc(CC(=O)Oc2ccc(F)cc2)cc1 | -0.2 | 1
Cc1cccc(C)c1NC(=O)NC1CCc2ccccc21 (stereo not given) | 1.5 | 0.41

2 of these compounds in a different format.
> Cc1ccc(CNC(=O)/C=C/C(=O)O)cc1
  AID504770 = -0.55 | Ba CapD inh = -0.89
> CCOC(=O)NC(=S)Nc1ccc(F)cc1F
  AID504770 = 2.6 | Ba CapD inh = 0.79

High-throughput results as filed in PubChem.
